# LANA-H2A inh – blockers of LANA interaction with H2A/H2B – biochemical, FP readout, HTS, primary screen; 320,000 tested, 0.6% active; cell-free LANA-H2A/H2B peptide, fluorescence polarization; inhibition, % (test concentration not listed); in the data active = inhibition mostly above about 10%, no sharp cut-off; inactive = mostly below about 6.7%;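 note: stock transfer was 7.5 nL into about 10 µL; 0% = median of vehicle wells and 100% = median of positive control wells; one replicate is shown; the record names a cut of 25% in any replicate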
# rRNA inh HTS – reduced GFP signal of wild-type E. coli, primary screen, bacterial rRNA inhibitor project, GFP/RFP fluorescence, OD600, single point | E. coli WT GFP vs humanized-ribosome RFP mutants, 24 h; active compounds read low; DMSO median 0, no signal -100 | GFP signal change (wild-type ribosome), % (concentration not given with the values) | 350,000 tested, 1.6% active | AID 720706, 2013;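 active = significant combined selectivity score with lowered wild-type GFP, culture density cut under 30%, mutant RFP and density less affected; inactive = any of these conditions unmet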; note: one replicate is shown; some compounds called inactive have numbers as strong as hits
# Calb FLC – C. albicans growth inhibition with fluconazole, primary screen, CaCi-2 strain, Alamar Blue fluorescence. C. albicans CaCi-2 (fluconazole-resistant clinical isolate) + fluconazole, 48 h. growth inhibition, % (test concentration not listed). 300,000 tested, 0.57% active. AID 1979, 2009;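 active = most replicates above 75%; inconclusive = exactly half above 75%; inactive = most below 75%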;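 note: all wells also contain fluconazole at 8 µg/ml as a sub-toxic cotreatment; 0% = median of DMSO wells and 100% = median of geldanamycin control wells; wells of about 8 µL received 7.5 nL stock; the first replicate is given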
# B2AR ag – beta2AR agonists driving receptor internalization, primary screen, cell-based, FAP fluorogen, flow cytometry. 340,000 tested, 0.43% active. Am2.2-beta2AR cells; reference of the scale not given here. response, % (no concentration beside the values);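 active = response above a set limit, near 3 SD of response in nonfluorescent compounds, cut at about 42% in these data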;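 note: stock transfer was 100 nL into about 11 µL; a reference agonist was the positive control; negative values mostly stem from fluorescent compounds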
# Target sequence (P07550 whole entry, looked up): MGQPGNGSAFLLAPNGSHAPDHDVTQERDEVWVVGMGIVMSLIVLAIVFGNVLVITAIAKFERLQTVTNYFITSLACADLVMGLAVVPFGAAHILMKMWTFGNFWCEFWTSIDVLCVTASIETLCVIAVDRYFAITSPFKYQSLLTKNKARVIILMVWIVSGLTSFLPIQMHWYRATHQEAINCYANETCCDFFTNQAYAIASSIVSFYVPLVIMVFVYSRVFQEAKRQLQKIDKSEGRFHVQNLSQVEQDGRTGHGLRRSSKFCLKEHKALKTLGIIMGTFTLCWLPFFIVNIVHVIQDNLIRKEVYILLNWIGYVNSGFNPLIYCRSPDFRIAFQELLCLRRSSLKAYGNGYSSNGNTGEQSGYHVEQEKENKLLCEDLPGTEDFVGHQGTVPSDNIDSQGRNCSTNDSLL
# Beta apoptosis – inhibitors of cytokine-induced beta cell apoptosis, primary screen, luminescence. INS-1E cytokine-induced death, ATP luminescence, 48 h; percent of positive-control rescue, neutral wells zero. protection from apoptosis, % (test concentration not listed). 300,000 tested, 0.8% active. AID 435005, 2010;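 active = all replicates at 75% or more, or half of them and the mean; inconclusive = half reach 75% but not the mean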;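 note: 0% = cytokine-treated negative control wells and 100% = positive control rescue; higher means more ATP so stronger rescue from cytokine killing; wells of about 40 µL received 100 nL stock; the first replicate is given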
# A1 inh – caspase 3/7 activation in MEF A1-2A-BIM cells, primary screen, A1 inhibitor project, cell-based, luminescence, HTS | 330,000 tested, 0.066% active | caspase activation, % (concentration not given with the values) | Caspase-Glo 3/7 luminescence, 3 h; percent of clofoctol response, vehicle zero;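 active = over half of replicate activation scores above 10%, or exactly half above 10 with the replicate mean above 10; inconclusive = replicate mean below 10 yet half the replicates above 10; inactive = over half of replicates below 10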;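 note: wells of about 30 µL received 50 nL stock; many hits fall short of the cut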
# ALR H2O2 inh – inhibitors of human ALR sulfhydryl oxidase, primary screen, biochemical, H2O2 detection, HRP-luminol luminescence, single point; FAD-linked sulfhydryl oxidase ALR (Homo sapiens), P55789; purified ALR, DTT oxidation; inhibition, % (concentration not given with the values); 290,000 tested, 3.8% active;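 active = mean and each replicate at 75% or more; inconclusive = only one of the two met; inactive = neither met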;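 note: stock transfer was 7.5 nL into about 7.5 µL; 0% = neutral wells and 100% = wells with inactivated enzyme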
# Target sequence (P55789 whole entry, looked up): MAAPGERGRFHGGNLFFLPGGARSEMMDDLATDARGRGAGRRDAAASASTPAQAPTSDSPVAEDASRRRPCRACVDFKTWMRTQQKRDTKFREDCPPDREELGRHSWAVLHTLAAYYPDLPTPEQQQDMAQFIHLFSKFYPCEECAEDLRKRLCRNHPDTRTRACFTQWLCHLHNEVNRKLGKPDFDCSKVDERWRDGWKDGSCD
# T cruzi inh – inhibitors of intracellular T. cruzi growth, primary screen, luminescence, NIH3T3 host cells. T. cruzi beta-gal in NIH3T3, 90 h. inhibition, % (no concentration beside the values). 300,000 tested, 1.4% active;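 active = mean inhibition across valid replicates above about 55%, limit read from the data; inconclusive = mean below that limit but half or more replicates reach it; inactive = mean below it, under half of replicates reach it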;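 note: signal also drops with host cell toxicity which is not excluded here; 0% = plate median of DMSO wells and 100% = zero luminescence signal; higher percent means less beta-gal luminescence so fewer parasites; stock transfer was 50 nL into about 50 µL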
# rRNA inh HTS OD600 – second read-out of rRNA inh HTS, no call of its own (marks repeat the call); OD600 change, %; measured here: OD600 growth;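 optical density of the mix in the first replicate; 0 = DMSO median and -100 = no signal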
# rRNA inh HTS RFP – recorded beside rRNA inh HTS, whose call it bears; RFP signal change, %; measured here: RFP humanized mutant strains;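 first replicate; 0 = DMSO median and -100 = no signal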
# The depositor's hits bear a star; ? = inconclusive; / = not tested or not shown. An excerpt (hit frequency here may not be typical).
SMILES,LANA-H2A inh,rRNA inh HTS,rRNA inh HTS OD600,rRNA inh HTS RFP,Calb FLC,B2AR ag,Beta apoptosis,A1 inh,ALR H2O2 inh,T cruzi inh
CCc1cc2c(SCC#N)ncnc2s1,-1.5,-4,-2,-0.4,-26,-11,-9,0.6,14,10
Cc1ccn2c(NC(=O)c3ccco3)c(-c3ccccc3)nc2c1,0.1,/,/,/,6,6,-11,0.0,39,4
CC(=O)COC(=O)c1cc(-c2ccc(C)cc2)nc2ccccc12,-1.1,-1,-7,-0.5,-7,-6,0,-2.0,3,-9
Cc1cc(NC(=S)Nc2ccc(C)c(Cl)c2)n[nH]1,-2.8,-17,-11,-2.5,0,-2,1,1.1,97*,33
CCc1nnc(NC(=O)Cn2nc(-c3ccc(OC)c(OC)c3)ccc2=O)s1,-0.7,/,/,/,-3,-1,0,1.2,-19,-5
Cn1c(=O)c2c(nc(SC3C(=O)CC(C)(C)CC3=O)n2C)n(C)c1=O,9.2,/,/,/,-1,-5,0,1.9,9,-20
CCCCOCCCNC(=O)N[C@H](C(=O)OC)C(C)C,-9.7,/,/,/,4,-3,-6,0.2,-5,-1
Cc1cc(C)c(C(=O)COC(=O)CCn2c(C)csc2=O)cc1C,-0.1,-6,-22,0.6,-4,-8,0,0.1,/,-12
COCCn1nnnc1C(c1ccc(OC)cc1OC)N1CCN(c2ccccc2F)CC1 (stereo unspecified),-3.5,/,/,/,-8,1,1,-0.2,-2,-6
COc1ccc(OC)c(NC(=O)C2CCC(CNc3c(N4CCC(C)CC4)c(=O)c3=O)CC2)c1 (stereo unspecified),0.1,-1,2,1.5,0,-7,/,1.0,-23,4
Cc1cccnc1NC(=O)CNC(=O)C12CC3CC(CC(Cl)(C3)C1)C2,-2.0,4,1,-2.9,-3,6,-1,0.6,0,3
CC(c1ccccc1)C1CC(=O)N(C2CCCCC2)C1=O (stereo unspecified),-1.9,-44,-63,-3.9,?,0,6,-0.2,-1,-12
COc1ccc(-c2nnc(SCC(=O)c3[nH]c(C)c(C(C)=O)c3C)o2)cc1,-8.3,/,/,/,/,8,12,0.0,-5,/
COc1ccc(-c2cn(Cc3ccc([N+](=O)[O-])cc3)nn2)cc1,0.3,1,4,-4.4,16,-8,-2,0.2,/,0
CCOC(=O)/C(=C\c1cn(C)c2ccccc12)[N+](=O)[O-],1.9,8,13,2.9,-6,16,5,0.1,95*,5
O=C(COC(=O)c1ccc(Br)o1)NCc1ccccc1Cl,6.3,3,-6,0.0,/,-15,-8,-0.1,-4,/
CCOC(=O)c1[nH]c2cc(OC)c(OC)cc2c1NC(=O)c1nonc1C,5.9,/,/,/,4,-1,1,0.5,-2,4
C=CCN1C2=NCCCN2c2ccccc21,-2.1,16,10,-1.9,-7,-6,-1,0.0,-3,-1
Cc1cc(=O)oc2cc(OCC(=O)Nc3nnc(C(C)C)s3)ccc12,-8.3,/,/,/,-4,-6,-1,1.1,-1,0
CC(=O)c1ccc(S(=O)(=O)NC2CC(=O)N(c3ccc(C)c(C)c3)C2)cc1 (stereo unspecified),-0.5,1,-3,0.3,8,7,6,0.2,-5,-1
CCOc1ccc2[nH]c(C)cc(=O)c2c1,13,6,10,0.5,-2,1,0,0.0,-4,-3
C=CCOc1ccc(-c2nc3c(c(=O)[nH]c(=O)n3Cc3ccccc3)n2CCCOC)cc1,0.7,2,11,-0.9,3,-5,-1,-0.1,-7,17
COC(=O)c1c(C)[nH]c(C)c1-c1ccccc1,-4.5,/,/,/,?,4,-11,0.0,9,-15
Cc1c(C(=O)NC(C)CN2CCCCC2)oc2ccccc12 (stereo unspecified),0.3,/,/,/,-22,20,-4,0.8,-2,14
O=C(c1ccc(OC2CCN(CCc3ccccc3)CC2)cc1)N1CCC[C@H]1CO,/,14,9,2.4,8,-9,/,/,/,-10
S=C(NCc1cccs1)Nc1cc(Cl)cc(Cl)c1,21*,-48,-75,-6.2,6,4,9,-0.9,/,32
COc1ccc(NC(=O)C(Sc2nnc3ccccn23)c2ccccc2)cc1Cl (stereo unspecified),-3.9,/,/,/,-4,6,2,0.5,-4,1
Cc1ccccc1S(=O)(=O)Nc1nc2ccccc2nc1Cl,-1.2,9,-1,-0.3,0,-1,0,0.7,-9,-16
NS(=O)(=O)c1cccc(NC(=O)COC(=O)CSCc2ccccc2)c1,-1.8,3,15,-0.5,/,13,3,-1.4,-4,/
CCOc1cc(NC(=O)C2CC2)c(OCC)cc1NC(=O)c1ccccn1,-5.3,/,/,/,1,4,6,-1.4,/,33
O=C(CN(Cc1cccs1)C(=O)CNS(=O)(=O)c1ccc(F)cc1)NCC1CCCO1 (stereo unspecified),-0.7,12,15,-2.0,5,-2,0,0.7,2,3
O=S(=O)(Nc1cc(Cl)ccc1-n1cncn1)c1cc(Br)ccc1Br,-1.3,-52,-76,-18,/,9,31,-1.0,13,/
CN(CCN(C)C(C)(C)C)C(=O)C(c1ccccc1)c1ccccc1,9.4,4,6,0.2,22,5,-5,1.1,-3,-8
Cc1[nH]nc2c1C(Cc1ccccc1)C(C#N)=C(N)O2 (stereo unspecified),-3.5,/,/,/,5,3,-1,-1.9,47,-14
CCOc1ccc(CN2CCC(=O)NC2=O)cc1,1.7,/,/,/,8,-4,2,/,-9,3
CN(C)CCCNCC(=O)Nc1ccccc1N1CCOCC1,-0.6,/,/,/,-3,-1,-11,0.6,-4,10
C[C@H](NC(=O)[C@H]1N2C(=O)c3ccccc3C2SC1(C)C)C(=O)NCC1CCCO1 (stereo partly specified),-3.2,5,8,-0.9,-4,-1,-5,0.7,-3,-4
COc1ccc(C(=O)Oc2ccc(/C=N/NC(=O)Cc3ccc([N+](=O)[O-])cc3)cc2)cc1,-7.4,/,/,/,?,0,-3,-1.3,-2,4
COc1c(Cl)cc(-c2noc(C)c2C(=O)NCc2ccccc2)cc1Cl,0.0,-1,4,1.2,0,-2,2,0.3,?,15
CCc1nnc(SCC(=O)N2CCCc3ccccc32)nc1CC,-1.5,/,/,/,?,-11,6,-0.5,61,-4
FC(F)(F)c1nc(-c2cccnc2)ncc1-c1nnnn1-c1ccccc1,-5.5,/,/,/,14,-13,6,-1.0,-2,6
O=C(c1ccc([N+](=O)[O-])cc1)N1CCc2ccccc21,1.0,-1,7,-1.8,-3,-4,2,0.2,0,7
O=C(NCc1ccccn1)Nc1ccccc1F,3.6,13,13,-1.5,-14,-16,-2,0.9,-11,-12
O=C(NCCN1C(=O)S/C(=C\c2ccc(F)cc2)C1=O)c1cccc(S(=O)(=O)N2CCOCC2)c1,0.3,6,6,-3.6,12,-8,2,-0.8,-14,6
CC[C@@H]1C=C(C(=O)O)[C@H](c2ccc(F)cc2)N1S(=O)(=O)c1ccc(C)cc1,-2.3,8,6,4.6,/,12,-7,-0.4,/,/
CCCCN(CC)S(=O)(=O)c1ccc(C(=O)Nc2nnc(-c3ccccc3Cl)o2)cc1,4.6,-35,-54,-2.2,54,6,14,0.5,-1,-21
c1coc(Cn2nnnc2CN2CCN(C3CCCCC3)CC2)c1,0.8,/,/,/,2,-7,-1,-0.4,-4,-20
CCn1nc(C(C)C)cc1C(=O)N1CCCC(CO)(Cc2ccc(F)cc2F)C1 (stereo unspecified),5.6,-1,-15,-1.5,-1,-1,-7,-1.0,-1,14
O=C(CC1C(=O)NCCN1CCCc1ccccc1)NCCc1ccccc1Cl (stereo unspecified),2.5,-30,-32,0.5,-2,1,-5,-0.2,-3,11
Cc1cc(=O)oc2cc(OCC(=O)NCCCN3CCCC3=O)c(Cl)cc12,-3.9,3,3,-0.2,23,-8,4,-0.1,-1,-11
CCCSc1nc2c(c(=O)[nH]c(=O)n2C)n1C,-3.0,/,/,/,2,11,-3,0.0,0,-10
Cc1cc2c3c(c1C)C(=O)C(=O)N3C(C)(C)CC2C (stereo unspecified),-1.4,2,7,-0.9,-11,-5,-3,1.1,41,-7
COc1cccc(C(=O)n2c(SC)nc3cc4c(cc32)OCCO4)c1,-8.1,-1,2,-3.6,4,-6,-3,-1.7,58,-14
CN(C)CCn1c(=S)[nH]c2ncccc2c1=O,-2.4,10,3,-8.9,6,0,0,0.1,16,-9
Cc1noc(C)c1S(=O)(=O)N1CCC(C(=O)NCCC2=CCCCC2)CC1,-1.0,/,/,/,/,0,9,-0.8,-15,1
COc1ccccc1CNC(=O)C1CCN(S(=O)(=O)c2ccc3nc4c(c(C(=O)O)c3c2)CCCC4)CC1,2.6,11,13,6.7,0,0,-8,0.0,-5,-9
CC1=C(C(=O)N(C)C)C(c2ccccc2OC(F)F)NC(=O)N1 (stereo unspecified),-8.7,12,11,-0.5,-11,5,-6,0.0,9,-5
N#Cc1nc(COc2ccccc2Cl)oc1NCc1ccco1,-1.6,/,/,/,20,3,5,1.1,8,3
O=C(CCNC(=O)c1ccco1)NCCc1c[nH]c2ccccc12,0.2,-6,-5,3.4,/,12,-3,0.7,2,/
COc1ccc(-n2c(=O)c3ccccc3c3ccccc3c2=O)c(OC)c1,-0.3,13,13,-1.0,9,-2,-3,1.1,6,-21
# Next records follow.
SMILES,LANA-H2A inh,rRNA inh HTS,rRNA inh HTS OD600,rRNA inh HTS RFP,Calb FLC,B2AR ag,Beta apoptosis,A1 inh,ALR H2O2 inh,T cruzi inh
N=c1c2ccccc2nnn1-c1cccc(C(F)(F)F)c1,-0.6,15,18,4.5,46,-7,8,0.2,0,4
COc1cc2c(cc1OC)CN(CC(=O)NC(=O)NC1CCCCC1)CC2,-0.5,8,9,0.6,4,0,2,0.2,/,-5
COc1ccc(-c2[nH]ncc2CN2CCC(c3ccncc3)CC2)cc1F,0.0,5,2,-2.6,5,-11,-2,0.4,/,-9
O=C(Cn1nc(-c2ccccc2)ccc1=O)Nc1ccc(N2CCN(C(=O)c3cccs3)CC2)cc1,-7.5,-36,-14,59,-1,4,6,0.9,-7,11
CN(C)c1nc(-c2ccccc2)c2cc(Cl)ccc2n1,2.4,13,21,3.8,16,12,6,0.8,-10,-4
Cn1nccc1C(=O)N1CCc2ccccc21,-2.6,/,/,/,4,4,-11,0.9,11,-11
COC(=O)c1cccc(NS(=O)(=O)c2cccs2)c1C,4.0,-15,-17,-4.6,2,-1,-5,0.9,-2,-9
CC(=O)Nc1ccc(NC(=O)CSc2ncc(C(=O)Nc3ccc(Cl)cc3)c(=O)n2C)cc1,3.4,/,/,/,2,29,5,-7.4,99*,-30
C=CCc1ccc(OCCOc2cccc3cccnc23)c(OC)c1,0.0,/,/,/,44,-12,1,-0.4,-6,-26

# Screens (PubChem BioAssay)
